HPGD block – inhibitors of human 15-hydroxyprostaglandin dehydrogenase (HPGD); 150,000 compounds, 4.3% hits; purified HPGD, NADH fluorescence kinetic, PGE2 substrate; Potency, µM, for inactives: at the top dose activity change, negative = inhibition, hits mostly inhibitors; P15428; active = well fitted inhibition curve with a large enough effect (not every such curve was filed as active); inconclusive = small, poorly fitted or top-dose-only effect, or another doubt; inactive = no such curve, though single readings can be large or run the other way;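 also: top concentration of the series not given in the record; plate controls included wells without enzyme; inactives centre near -10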
Target sequence (P15428 whole entry, looked up): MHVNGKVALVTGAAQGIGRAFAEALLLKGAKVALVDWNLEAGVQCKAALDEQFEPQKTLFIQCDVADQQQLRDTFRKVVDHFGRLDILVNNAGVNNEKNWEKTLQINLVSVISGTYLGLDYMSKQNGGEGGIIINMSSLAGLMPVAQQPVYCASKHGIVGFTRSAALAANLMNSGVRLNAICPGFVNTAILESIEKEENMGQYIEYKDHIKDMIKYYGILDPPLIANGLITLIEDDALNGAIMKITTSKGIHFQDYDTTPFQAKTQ
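NADH formation kinetics: reaction with 30 uM PGE2 and 1 mM NAD+ (final), 20 nM enzyme, Tris-HCl pH 8 with Tween 20, after 15 min compound preincubation at room temperature. Fluorescence change, last versus first of five reads.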
An asterisk follows results filed as active; u = inconclusive; & = joins results of further samples. % is scaled to controls: 0 for no effect and ±100 for the full control effect; potency is read from the fitted curve at half-maximal effect. These rows are one share of the data; rates above refer to the full screens.

HPGD block	SMILES
-7%	CC1(C)CC(=O)C(C(c2cccnc2)C2C(=O)CC(C)(C)CC2=O)C(=O)C1
u	Cn1sc(NC(=O)c2ccc(Cl)cc2)nc1=O
-25%	CCOc1cccc(-c2nnc3sc(-c4cccs4)nn23)c1
-17%	Cc1ccc(-n2c(C)nnc2SCC(=O)N2CCc3ccccc3C2)cc1C
3.2µM*	COc1cc(SC)ccc1C(=O)N1CCCCCC1
-2%	Cc1ccc(SCCNC(=O)c2ccc(C)c([N+](=O)[O-])c2)cc1
-2%	CCOC(=O)CN1C(=O)S/C(=C/c2cc(C)n(-c3ccccn3)c2C)C1=O
-16%	Cc1nnc(C)n1/N=C/c1cccc(Oc2ccccc2)c1
-6%	O=C(NC(=S)Nc1cccc2cccnc12)c1ccccc1
-2%	O=C(NCc1ccco1)c1nc2ncccn2n1
-8%	COc1ccc(C(=O)Nc2nc3ccccc3c(=O)[nH]2)cc1
-1%	Cc1ccccc1NS(=O)(=O)c1cc(C(=O)N2CCCC2)ccc1C
28µM*	O=C(NCc1ccco1)c1ccc(Oc2ccccc2)cc1
-20%	COc1ccc(C(=O)CN2C(=O)NC3(CCCc4ccccc43)C2=O)cc1OC (configuration not stated)
-11%	Cc1ccc(NC(=O)COc2ccc(S(=O)(=O)N3CCOCC3)cc2)cc1
-26%	CCOC(=O)CCC(=O)OCC(=O)NC(C)C1CC2CCC1C2 (configuration not stated)
-3%	CCc1cccc(C)c1NC(=S)N1CCCC1C(=O)O (configuration not stated)
-2%	O=C(CCN1CCN(Cc2ccccc2)CC1)Nc1ccc(OCc2ccccc2)cc1
20µM*	CN1CCN(C(=O)CCCOc2ccc(Cl)cc2Cl)CC1
-5%	CC1(C)CC(=O)C=C(NCCO)C1
u	CCN(CC)C(=O)c1ccc2nc(-c3ccccc3)c(-c3ccccc3)nc2c1
1%	O=C(NCCc1ccccc1)C(=O)N/N=C/c1ccccc1C(F)(F)F
-1%	O=C(N/N=C/c1cccnc1)c1ccccc1[N+](=O)[O-]
-29%	COc1ccc(C(=O)CCN(C)C)c2ccccc12
-10%	COc1ccc(Nc2nc(Cl)nc(NCc3ccco3)n2)cc1
-11%	c1ccc2c(CNCCN3CCOCC3)cccc2c1
-26%	CCN(CC)CCNC(=O)c1cn(CC)c2ccc(S(=O)(=O)N(C)C)cc2c1=O
-14%	CCCC(CCC)=NNC(=O)CN(Cc1ccccc1)S(=O)(=O)c1ccccc1
u	O=C(Nc1c2ccccc2nc2ccccc12)C(Cl)(Cl)Cl
3%	CC1Cc2ccccc2N1C(=O)CSc1nnnn1C (configuration not stated)
-13%	Cn1c(=O)cc(SCC(=O)NCc2cccnc2)c2ccccc21
-22%	COc1cccc(CNC(=O)c2cc3ccccn3n2)c1
-11%	Cc1noc(C)c1C(=O)OCC(=O)NCCc1ccc(Cl)cc1
-6%	Cc1cc2c(ncn2C(C)C)c(N)c1C
0%	Cc1ccc(S(=O)(=O)N2CCCC2c2nc3ccccc3s2)cc1 (configuration not stated)
-14%	CC(=O)NS(=O)(=O)c1ccc(N=NN2CCCCC2)cc1
2.5µM*	O=C(c1nsc(Cl)c1Cl)N1CCCCC1
-14%	C/C(=N\NC(=S)NCCc1ccccc1)c1ccc(C#N)cc1
-12%	COc1ccc(-c2ccc(OC)cc2)cc1
-15%	Cc1nc(Sc2ccccc2)c(C#N)cc1-c1ccccc1
-1%	CC(C)Oc1ccc(C(=O)Nc2ccc(N3CCCC3)cc2)cc1
-27%	CC(Oc1ccc(NC(=O)c2ccco2)cc1)C(=O)N1c2ccccc2CC1C (configuration not stated)
-5%	Cc1cccc(C)c1Nc1nc2ccccc2o1
-8%	O=C(COc1ccc(S(=O)(=O)NCCc2ccccc2)cc1)N1CCCC1
u	O=S1(=O)c2ccccc2N=NN1Cc1cc(Cl)cc(Cl)c1
-9%	O=C(CSc1nc2c(c(=O)n1-c1ccc(F)cc1)SCC2)N1CCCC1
-15%	S=C1NC2(CCCCC2)N=C1c1ccccc1
-9%	COc1cc(C)nc(NC(=O)COc2ccc(Cl)cc2C)n1
u	CC1OC2(C)OC(=N)C1(C#N)C(C#N)(C#N)C2c1ccccc1 (configuration not stated)
14µM*	Nc1c(-c2ccccc2Cl)cnn1-c1cccc([N+](=O)[O-])c1
-12%	Nc1nc(-c2ccccc2)cc(-c2ccccc2O)n1
-3%	CC(C)=CC(=O)OCC(=O)NC(=O)NC(C)(C)C
-7%	CCOC(=O)c1nc(Nc2ccc(C)cc2)c2ccccc2n1
-5%	COc1ccccc1C1SCCN1S(C)(=O)=O (configuration not stated)
-12%	CCOC(=O)c1ccc(NC(=O)CCNC(=O)c2ccc([N+](=O)[O-])cc2)cc1
-23%	CC(C)c1ccc(/C=C/C(=O)n2nnc3ccccc32)cc1

Of the compounds above, three have a cyano group.
HPGD block	SMILES
-14%	C/C(=N\NC(=S)NCCc1ccccc1)c1ccc(C#N)cc1
-15%	Cc1nc(Sc2ccccc2)c(C#N)cc1-c1ccccc1
u	CC1OC2(C)OC(=N)C1(C#N)C(C#N)(C#N)C2c1ccccc1 (configuration not stated)

Additional records
HPGD block	SMILES
-22%	Cc1cc(C)c2cc(C)c3nnc(SCC(=O)NCc4ccc5c(c4)OCO5)n3c2c1
-22%	Cc1cc(C(=O)NNC(=S)NCc2ccco2)n(C)n1
-14%	CCn1c(Cc2ccccc2)nnc1SCc1nc2ccccc2c(=O)[nH]1
-8%	COc1cc(/C=N/NC(=O)c2sc(N)c(C#N)c2C)ccc1O
-9%	CCOC(=O)c1c(C)c(C(=O)Nc2ccc3c(c2)OCCO3)c(C)n1C
-9%	O=C(c1csnn1)N1CCC2(CCCN(C(c3ccccc3)c3ccccc3)C2)CC1
14µM*	CCOC(=O)C1CCN(c2c(NCCCN3CCN(Cc4ccccc4)CC3)c(=O)c2=O)CC1
-16%	Cc1ccc2c(c1)C(N1CCN(C)CC1)=Nc1cccnc1N2

As entered above:
Result for Cc1nc(Sc2ccccc2)c(C#N)cc1-c1ccccc1 under HPGD block: -15%
Result for Cn1c(=O)cc(SCC(=O)NCc2cccnc2)c2ccccc21 under HPGD block: -13%
Result for COc1cc(SC)ccc1C(=O)N1CCCCCC1 under HPGD block: 3.2µM*
Result for Cc1cc2c(ncn2C(C)C)c(N)c1C under HPGD block: -6%

(continued)
HPGD block	SMILES
-3%	CC1=Nn2c(nnc2-c2n[nH]c3c2CCC3)SC1
-5%	Cc1cccc(C)c1NC(=S)NC(C)CCc1ccccc1 (configuration not stated)
-6%	CCCCCCSc1nc2c(c(=O)[nH]c(=O)n2C)n1C
-8%	COc1ccc(S(=O)(=O)Nc2ccccc2C(F)(F)F)cc1
-13%	C=CCc1ccccc1OCC(O)CN1CCN(c2ccc(OC)cc2)CC1 (configuration not stated)
-2%	O=C(NCc1ccc2c(c1)OCO2)C1CCC(CNS(=O)(=O)c2cccc3nsnc23)CC1 (configuration not stated)
-13%	Cc1sc2ncnc(SC(C)C#N)c2c1C (configuration not stated)
-3%	COc1ccc(NC(=O)c2cc3n(n2)C(C(F)(F)F)CC(c2ccco2)N3)cc1 (configuration not stated)

In another format: results already given
molecule	HPGD block
COc1ccc(S(=O)(=O)Nc2ccccc2C(F)(F)F)cc1	-8%
CCCCCCSc1nc2c(c(=O)[nH]c(=O)n2C)n1C	-6%
O=C(NCc1ccc2c(c1)OCO2)C1CCC(CNS(=O)(=O)c2cccc3nsnc23)CC1 (configuration not stated)	-2%
CC1=Nn2c(nnc2-c2n[nH]c3c2CCC3)SC1	-3%

Continuation:
HPGD block	SMILES
-12%	N#CCCN(C(=O)Nc1ccc(Cl)cc1)c1ccccc1
-17%	CN(C)CCCN(C(=O)c1ccc2c(c1)CCCC2)c1nc2ccc(Cl)cc2s1
28µM*	COc1ccc(C(=O)/C=C2\NCC3c4ccccc4CCN3C2=O)cc1 (configuration not stated)
-12%	CC(C)CC(=O)Nc1ccc(C(=O)NNC(=S)NC(=O)C2CCCCC2)cc1
-6%	CCCCNc1cc(C)nc(NCc2ccccc2)n1
-5%	CCOc1ccc2ccccc2c1C(=O)N1CCOCC1
-4%	CN(C)c1ccc(NC(=S)NCC2CCCO2)cc1 (configuration not stated)
-2%	COc1ccc(CCNC(=O)CSc2nncs2)cc1
-13%	O=C(Nc1nc(-c2ccccc2)cs1)NC1CCCCC1
-26%	Cc1ccn2c(c1)nc(=S)n2C(=O)c1ccco1
-13%	C/C(CC(=O)NC1C2CC3CC(C2)CC1C3)=N\NC(=O)Cc1cccs1 (configuration not stated)
-4%	O=C(NNC(=O)C1CC(c2cccnc2)=NO1)Nc1cccc(F)c1 (configuration not stated)
-15%	COc1cc(CC(=O)N2CCc3ccccc32)cc(OC)c1OC
-20%	COC(=O)c1c(Cc2ccccc2Cl)c[nH]c1C
-7%	O=C1CCCc2c1cc(-c1ccccc1)n2-c1ccccc1
-12%	CCOC(=O)CNC(=O)O[C@@H]1C(=O)c2cc(OC)ccc2O[C@H]1c1cccc(OC)c1
u	Cc1cccc(-n2cnc3c(c2=O)c2nc4ccccc4nc2n3Cc2ccco2)c1
-9%	O=C(c1ccccc1)c1ccc(OC(=O)N2CCOCC2)cc1
u	Cc1ccc(S(=O)(=O)N2CCCC2C(=O)Nn2cnnc2)cc1 (configuration not stated)
10µM*	CC(/C=N/n1c(-c2cc(C)[nH]n2)n[nH]c1=S)=C\c1ccccc1
-14%	O=C(Nc1nc(-c2ccc3ccccc3c2)cs1)c1ccc(N2C(=O)CCC2=O)cc1
-11%	Cc1ccc(-c2cc(=O)c3cc(Cl)ccc3[nH]2)cc1
32µM*	Cc1onc(-c2c(Cl)cccc2Cl)c1C(=O)NCCc1ccc(S(N)(=O)=O)cc1
-13%	COc1ccccc1CC(=O)Nc1cccc(C(=O)NN2C(=O)c3ccccc3C2=O)c1
-15%	Cn1ccnc1SCC(=O)NC1CCCCC1
-22%	O=C(NNC1=C(C(=O)C(F)(F)F)CCC1)c1cccc(Cl)c1
-7%	COc1ccc2c(=O)c(-c3cnn(-c4ccccc4)c3)c(C)oc2c1
-20%	CC1(C)SC2C(N3C(=O)C(c4ccccc4)NC3(C)C)C(=O)N2C1C(=O)O (configuration not stated)
-4%	Clc1ccc(-c2cnc(Oc3ccccc3)nc2)cc1
-4%	O=C(c1ccco1)N1CCN(C(c2ccc(F)cc2)c2nnnn2Cc2cccs2)CC1 (configuration not stated)
11µM*	Cc1ccc(N(NC(=O)C(O)(c2ccccc2)c2ccccc2)C(=O)CCl)cc1
-6%	COc1ccccc1NC(=O)c1ccc(S(=O)(=O)N(C)C)cc1
-8%	Fc1ccc(CSc2ccc(-c3ccco3)nn2)cc1
u	COc1cc2c(cc1NC(=O)CSc1ccc(C)cc1)oc1ccccc12
-20%	Cc1ccc(S(=O)(=O)Nc2ccc3c(c2)nc2n3CCN(Cc3ccccc3)C2)cc1
-21%	Cc1[nH]c2ccccc2c1Cc1nnc(SCc2ccccc2)o1
8.9µM*	CCCCNC(=O)c1ccc2c(c1)ncn2C1CCCC1
-8%	CN1CCN(C(=O)/C=C\c2ccc(Cl)cc2)CC1
-13%	CCCNC(=S)Nc1ccc(Oc2ccccc2)cc1
-3%	Cc1cccc(NC(=O)CSc2nnc(-c3ccco3)o2)c1C
-1%	CNC(=O)C1(C)C=CCN1C(=O)OC (configuration not stated)
-15%	COc1ccc2cc(Br)ccc2c1CC(=O)NC1CC(C)(C)NC(C)(C)C1
8%	CCOC(=O)C1CCN(C(=O)Nc2cccc(Cl)c2)CC1
-10%	COc1ccc(NC(=O)NCCCN2CCc3ccccc3C2)cc1
-14%	COC(=O)c1ccc(Cl)c(NC(=O)CN(c2ccc(OC)c(OC)c2)S(C)(=O)=O)c1
-4%	COc1ccc(-c2nc3c(c4c2C[C@H](c2ccccc2)OC4)CN(C(=O)NCCc2c[nH]c4ccccc24)CC3)c(C)c1
-12%	Cc1[nH]c2ccccc2c1SCC(=O)O
-17%	O=C(Oc1ccccc1-c1nnco1)c1ccc(Cl)cc1
11µM*	CCc1ccc(C(=O)CSc2n[nH]c(-c3ccncc3)n2)cc1
-13%	CCC(Oc1ccccc1)C(=O)Nc1ccccn1 (configuration not stated)
-7%	O=C(Nc1ccc(Cl)cc1)N[C@@H]1c2c(ccc3ccccc23)OC[C@@H]1CO
-3%	CCN1CCN(C(=S)Nc2ccc(Cl)cc2)CC1
-28%	COc1ccc(C(=O)N2CCC(C(=O)c3ccc(F)cc3)CC2)cc1
-10%&-9%&-7%	COc1ccc2c(c1OC)C(=O)OC2C1c2c(cc3c(c2OC)OCO3)CCN1C (configuration not stated)
-2%	N#Cc1cccc(NC(=S)Nc2ccccc2)c1
-13%	O=C(NCCCn1ccnc1)c1cnn2c1NC(c1ccccc1)CC2C(F)(F)F (configuration not stated)

The closing 3 entries of the part above are carried over, then new ones follow:
HPGD block	SMILES
-10%&-9%&-7%	COc1ccc2c(c1OC)C(=O)OC2C1c2c(cc3c(c2OC)OCO3)CCN1C (configuration not stated)
-2%	N#Cc1cccc(NC(=S)Nc2ccccc2)c1
-13%	O=C(NCCCn1ccnc1)c1cnn2c1NC(c1ccccc1)CC2C(F)(F)F (configuration not stated)
-9%	CCOc1ccc(NC(=O)COC(=O)c2ncc(Cl)c(Cl)c2Cl)cc1
-25%	Cc1ccc(-n2[nH]c(C)c(/C=N/NC(=O)c3cccc([N+](=O)[O-])c3)c2=O)cc1C
u	COc1ccc2c(c1)-c1c(ssc1=S)C(C)(C)N2
18µM*	C=CCn1c(CSc2nc3ccccc3s2)n[nH]c1=S
-11%	O=C(O)CCCC[C@@H]1CCSS1
u	c1ccc(-c2cn3cccnc3n2)cc1
-30%	O=C(CSc1nc2ccccc2c(=O)n1Cc1ccco1)c1ccc(F)cc1

Assay outcomes deposited in PubChem BioAssay by National Center for Advancing Translational Sciences (NCATS).
